Vif TR-FRET: HIV-1 Vif–A3G interaction blockers – biochemical, TR-FRET, GST-Vif 1-94, biotin-A3G peptide, dose response retest, primary screen (AID 1117319). hit rate 0.57% among 260,000. inhibition, %; hits with a dose series show IC50 in µM. TR-FRET GST-Vif / biotin-A3G peptide binding; higher % means a stronger effect; test concentration not given here; strong numbers were not always called active;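 active = above the screen mean plus three standard deviations and confirmed in dose response; inconclusive = results disagree or hit not tested in dose response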;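 also: Vif residues 1-94 fused to GST binding biotinylated APOBEC3G peptide 110-148; 0% = full assay without inhibitor and 100% = GST in place of GST-Vif; retest series ran down from 100 µM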
FGF22 binding: binders of recombinant human FGF22 by thermal shift; Q9HCT0; SYPRO orange fluorescence; percent of sucrose octasulfate shift, DMSO zero; calls only at 9.99 µM; hit rate 1.5% among 340,000; AID 651658;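 active = melting point raised past a set limit in the mean and every replicate; inconclusive = no clear call; three in four hits are not shown here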
Target sequence (Q9HCT0 whole entry, looked up): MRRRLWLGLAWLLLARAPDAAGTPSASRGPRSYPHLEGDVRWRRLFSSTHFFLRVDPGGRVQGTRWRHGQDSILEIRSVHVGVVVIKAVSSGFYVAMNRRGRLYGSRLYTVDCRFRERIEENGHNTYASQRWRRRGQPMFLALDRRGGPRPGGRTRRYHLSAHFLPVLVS
Ecoli growth: E. coli growth inhibition | OD600 absorbance (test concentration not listed) | Escherichia coli growth, OD600, 23 h; active compounds read low | hit rate 0.21% among 330,000;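 active = OD600 absorbance below the run mean of sample wells minus 3.6 SD, in any replicate, cut at about 0.56 in these data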;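 also: stock transfer was 300 nL into about 60 µL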
AF4-AF9 inh: inhibitors of human MLL-AF4/AF9 interaction; P42568; hit rate 0.47% among 350,000; AlphaScreen, biotin-AF4 peptide binding to FLAG-AF9; inhibition, % at 10 µM; AID 651704;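 active = every replicate reaching a set inhibition limit, whatever the replicate mean, cut at about 25% in these data; inconclusive = mean inhibition reaches that limit but some replicates miss it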;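 also: 0% = plate neutral control median and 100% = total signal loss; the record names both 10 and 1 µM as test concentration; the first replicate is given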
ALR H2O2 inh: inhibitors of human sulfhydryl oxidase ALR. P55789. purified ALR, DTT oxidation, H2O2 HRP-luminol luminescence. inhibition, % (no concentration beside the values). hit rate 3.8% among 290,000;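 active = mean and each replicate at 75% or more; inconclusive = only one of the two met; inactive = neither met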;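 also: stock transfer was 7.5 nL into about 7.5 µL; 0% = neutral wells and 100% = wells with inactivated enzyme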
Target sequence (P55789 whole entry, looked up): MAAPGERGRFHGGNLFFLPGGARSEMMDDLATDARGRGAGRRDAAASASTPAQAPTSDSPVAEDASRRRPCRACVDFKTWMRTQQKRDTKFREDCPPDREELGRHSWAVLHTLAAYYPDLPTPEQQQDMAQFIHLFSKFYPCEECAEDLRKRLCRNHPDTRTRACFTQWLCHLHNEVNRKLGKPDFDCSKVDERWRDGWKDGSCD
HNF4A DNA FP: change in binding of human HNF4 alpha to DNA; P41235; HNF4a-FITC DNA binding, fluorescence polarization, 1 h; activity change, % at 10 µM; hit rate 0.3% among 360,000; AID 1224865; in the data active = activity change above about 30%, passing the limit was not always enough;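 also: controls were the assay level and a saturating level of protein; the project sought stronger binding though the title names inhibitors; some compounds called inactive have numbers as strong as hits; positive values seem to mean higher polarization but the record does not say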
Target sequence (P41235 whole entry, looked up): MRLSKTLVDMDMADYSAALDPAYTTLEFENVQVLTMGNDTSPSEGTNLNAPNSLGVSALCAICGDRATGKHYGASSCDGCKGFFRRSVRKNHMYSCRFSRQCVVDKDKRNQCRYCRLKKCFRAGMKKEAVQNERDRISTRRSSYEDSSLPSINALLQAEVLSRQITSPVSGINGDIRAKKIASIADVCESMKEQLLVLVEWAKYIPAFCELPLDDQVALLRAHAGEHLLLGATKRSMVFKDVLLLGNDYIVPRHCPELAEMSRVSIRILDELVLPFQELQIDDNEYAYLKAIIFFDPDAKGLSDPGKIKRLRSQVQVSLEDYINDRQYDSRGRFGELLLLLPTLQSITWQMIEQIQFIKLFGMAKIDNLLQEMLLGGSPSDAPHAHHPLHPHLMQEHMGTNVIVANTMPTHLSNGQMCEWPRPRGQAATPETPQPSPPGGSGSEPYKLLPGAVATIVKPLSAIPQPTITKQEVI
Ecoli rRNA inh: selective bacterial rRNA inhibition in E. coli | GFP signal change (wild-type ribosome), % (no concentration beside the values) | E. coli WT GFP vs humanized-ribosome RFP mutants, fluorescence, 24 h; active compounds read low; DMSO median 0, no signal -100 | AID 720706 | hit rate 1.6% among 350,000;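 active = significant combined selectivity score with lowered wild-type GFP, culture density cut under 30%, mutant RFP and density less affected; inactive = any of these conditions unmet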; also: one replicate is shown; some compounds called inactive have numbers as strong as hits
Ecoli rRNA inh OD600: also measured in Ecoli rRNA inh; calls as there; OD600 change, %; measured here: OD600 growth;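 optical density of the mix in the first replicate; 0 = DMSO median and -100 = no signal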
Ecoli rRNA inh RFP: recorded beside Ecoli rRNA inh, whose call it bears; RFP signal change, %; measured here: RFP humanized mutant strains;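 first replicate; 0 = DMSO median and -100 = no signal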
* marks the source's active call; other numbers are inactive results; i = inactive; ? = inconclusive; · = no result given.

| Structure | FGF22 binding | Ecoli rRNA inh | Ecoli rRNA inh OD600 | AF4-AF9 inh | Ecoli growth | HNF4A DNA FP | ALR H2O2 inh | Ecoli rRNA inh RFP | Vif TR-FRET |
| --- | --- | --- | --- | --- | --- | --- | --- | --- | --- |
| CCOc1ccc2nc(Nc3nc(CSc4nnnn4-c4ccccc4)cc(=O)[nH]3)nc(C)c2c1 | · | · | · | · | 0.71 | 18 | -6 | · | -2% |
| CC(=O)c1cccc(NC(=O)N2CCCC2C(=O)NCc2ccccc2)c1 (centres undefined) | · | · | · | · | 0.71 | -1.1 | -5 | · | 20% |
| Cc1noc(C)c1S(=O)(=O)Nc1cccc2c1O[C@H](CN(C)S(=O)(=O)c1ccc(Cl)cc1)[C@H](C)CN([C@H](C)CO)C2=O | i | -4 | -11 | -1.2 | · | · | · | 2.7 | · |
| Cn1c(SC/C=C/c2ccccc2)nnc1-c1cccs1 | · | · | · | · | 0.73 | 2.0 | 3 | · | 3% |
| CCOC(=O)C(=O)N/N=C/c1cccc(Br)c1 | i | 14 | 1 | 0.0 | · | 8.9 | -5 | 0.3 | -8% |
| Cc1cc(C)nc(SCC(CSc2nc(C)cc(C)n2)C(=O)O)n1 | i | 9 | 9 | -2.6 | 0.64 | 12 | 0 | -1.7 | 1% |
| O=C(CC[C@H]1O[C@@H](n2ccc(=O)[nH]c2=O)[C@H](O)[C@@H]1O)NCCCc1ccccc1 | i | 10 | 12 | 2.5 | · | 4.7 | · | -1.4 | · |
| O=c1cc(O)c(-c2ccccc2Cl)c(Cl)[nH]1 | · | · | · | · | 0.72 | 0.7 | -4 | · | -2% |
| O=C(OCC(=O)N1CCN(C(=O)c2ccco2)CC1)c1ccccc1O | · | · | · | · | 0.68 | 4.2 | -2 | · | -6% |
| CC(C)C(NC(=O)C1CCC(C(C)(C)C)CC1)C(=O)NCc1cccnc1 (centres undefined) | · | · | · | · | 0.69 | -0.2 | -16 | · | 24% |
| Cc1ccc(S(=O)(=O)Nc2ccc3c(c2)C(=O)N([C@H](C)CO)C[C@@H](C)[C@H](CN(C)CC2CCCCC2)O3)cc1 | i | 0 | 13 | -1.9 | · | · | · | -0.2 | · |
| CCOCCCNC(=O)C(NC(=O)Cc1c[nH]c2ccccc12)c1ccc(OC)cc1 (centres undefined) | i | 8 | -3 | 1.0 | 0.7 | -0.2 | 0 | 4.7 | 14% |
| Cc1ccc(S(=O)(=O)N(C)C[C@H]2Oc3ccc(NC(=O)c4ccncc4)cc3CC(=O)N([C@@H](C)CO)C[C@@H]2C)cc1 | i | -1 | -3 | -1.1 | · | · | · | 0.5 | · |
| Cn1cnc(S(=O)(=O)N2C[C@@H](O)COC[C@@H]3O[C@@H](CC(=O)NC4CCCC4)CC[C@H]32)c1 | i | 3 | 14 | -0.8 | · | · | · | -2.8 | · |
| CC(=O)OCC1(C)CN(c2ccccc2)NC1=O (centres undefined) | i | -1 | -2 | -3.2 | 0.65 | 2.7 | 99* | -2.8 | 7% |
| COc1ccc(/C=N/Nc2ccc(C(=O)O)cc2)cc1OC | i | 3 | 2 | -4.3 | · | -2.0 | · | -2.5 | -6% |
| CCCN(CCC)S(=O)(=O)c1ccc(C(=O)NNC(=O)c2cc(OC)c(OC)c(OC)c2)cc1 | i | -2 | -5 | · | 0.63 | -0.5 | -14 | 3.3 | -6% |
| O=C(Nc1ccccc1F)c1ccc2nc(N3C(=O)CCC3=O)sc2c1 | · | · | · | · | 0.71 | 3.0 | 32 | · | 0% |
| C[C@H]1CN([C@@H](C)CO)C(=O)c2cccc(NC(=O)c3ccc(-c4nccs4)cc3)c2O[C@@H]1CN(C)Cc1ccc(Oc2ccccc2)cc1 | i | 3 | 10 | -6.7 | · | · | · | -2.0 | · |
| CCOC(=O)C1=C(C)Nc2ccccc2N=C1NC(=O)c1cc(C)on1 | i | -3 | -7 | -0.8 | 0.66 | 5.8 | -3 | 1.9 | -21% |
| COc1ccc(N(C(=O)Nc2ccc(Cl)cc2)C2=NCCC2)cc1 | i | -36* | -28* | 1.8 | 0.7 | -1.2 | -3 | -5.6* | -1% |
| O=C(C[C@H]1C[C@H]2c3cc(NC(=O)Nc4ccc(C(F)(F)F)cc4)ccc3O[C@H]2[C@@H](CO)O1)NC1CCCCC1 | i | -3 | 4 | -2.0 | · | · | · | -2.3 | · |
| COc1ccc(N(C)S(=O)(=O)c2cccc(C(=O)N3CCN(c4cccc(C)c4C)CC3)c2)cc1 | i | 5 | 9 | 0.1 | 0.72 | -2.4 | · | 1.8 | · |
| COCC(=O)Nc1ccc2c(c1)OC[C@H](C)N(Cc1cccc(F)c1)C[C@@H](C)[C@@H](OC)CN(C)C2=O | i | -1 | -2 | 7.0 | · | · | · | 0.2 | · |
| CCn1nc(NC(=O)c2ccco2)c2cc3cc(C)ccc3nc21 | i | -1 | -12 | -5.2 | 0.67 | 2.4 | 18 | 5.4 | 5% |
| O=C(NCC1(c2ccccc2)CCCC1)c1ccc(Br)o1 | · | · | · | · | 0.66 | -1.6 | 10 | · | · |
| O=c1[nH]c2cc3ccccc3cc2nc1-c1nnnn1C1CCCC1 | i | -9 | -1 | 4.5 | · | -7.8 | · | 6.6 | · |
| CCC1=NN2C(=N)/C(=C\c3cccn3-c3c(C)cccc3C)C(=O)N=C2S1 | · | 9 | 12 | -0.9 | 0.69 | 1.8 | 9 | 2.6 | -6% |
| NC(=O)CCn1nc(-c2ccc(Cl)cc2)c2ccccc2c1=O | · | · | · | · | 0.71 | 3.5 | -6 | · | 6% |
| O=C(NCCC1=CCCCC1)C1CCN(c2nnc(-n3cccc3)s2)CC1 | i | -5 | -4 | 2.2 | 0.76 | 4.1 | -2 | -1.5 | 10% |
| Cc1cc(C)c(NC(=O)CS(=O)CC(=O)N2CCN(c3ccc(F)cc3)CC2)c(C)c1 (centres undefined) | · | · | · | · | 0.7 | -3.2 | · | · | 4% |
| CN(C)/C=C1/Sc2ccccc2C1=O | · | · | · | · | 0.61 | 1.6 | -8 | · | -7% |
| C[C@@H]1CN([C@@H](C)CO)C(=O)c2cc(NC(=O)Nc3cccc4ccccc34)ccc2O[C@@H]1CN(C)Cc1ccc(Oc2ccccc2)cc1 | i | 4 | 10 | 3.7 | · | · | · | 5.9 | · |
| O=C(CC1Nc2ccccc2NC1=O)NC1CCCCC1 (centres undefined) | · | -4 | 5 | · | 0.71 | 3.4 | -10 | -2.0 | 1% |
| COc1ccc(-c2noc(CCC(=O)Nc3cccc(C(=O)NC4CC4)c3)n2)cc1OC | i | -5 | -4 | 3.5 | · | -3.8 | · | 1.7 | · |
| O=C(O)C1C2CCC(O2)C1C(=O)NCc1ccc(Cl)cc1 (centres undefined) | · | · | · | · | 0.68 | -2.2 | -2 | · | -4% |
| O=C(CSc1nc(O)cc(=O)n1-c1ccccc1)Nc1nc2ccccc2s1 | i | -5 | -9 | -5.8 | 0.67 | 1.0 | 99* | 35 | 4% |
| O=C(NCCN1CCOCC1)C(=O)NCc1ccc2c(c1)OCO2 | i | 21 | 14 | -2.9 | 0.69 | -3.4 | -2 | 2.9 | 3% |
| Cc1cc(C)c(S(=O)(=O)NCCc2cc3ccc(C)c(C)c3[nH]c2=O)c(C)c1 | i | 1 | -5 | 0.6 | 0.66 | 2.5 | 0 | 2.4 | 1% |
| CCOC(=O)c1ccc(NCc2ccc3c(c2)OCO3)cc1 | · | · | · | · | 0.7 | -3.7 | -14 | · | 2% |

Complete entries, looked up by structure. Values in the order: FGF22 binding	Ecoli rRNA inh	Ecoli rRNA inh OD600	AF4-AF9 inh	Ecoli growth	HNF4A DNA FP	ALR H2O2 inh	Ecoli rRNA inh RFP	Vif TR-FRET
Shown for Cc1noc(C)c1S(=O)(=O)Nc1cccc2c1O[C@H](CN(C)S(=O)(=O)c1ccc(Cl)cc1)[C@H](C)CN([C@H](C)CO)C2=O = i	-4	-11	-1.2	·	·	·	2.7	·
Shown for O=C(NCCC1=CCCCC1)C1CCN(c2nnc(-n3cccc3)s2)CC1 = i	-5	-4	2.2	0.76	4.1	-2	-1.5	10%
Shown for O=c1[nH]c2cc3ccccc3cc2nc1-c1nnnn1C1CCCC1 = i	-9	-1	4.5	·	-7.8	·	6.6	·
Shown for COc1ccc(N(C(=O)Nc2ccc(Cl)cc2)C2=NCCC2)cc1 = i	-36*	-28*	1.8	0.7	-1.2	-3	-5.6*	-1%
Shown for COCC(=O)Nc1ccc2c(c1)OC[C@H](C)N(Cc1cccc(F)c1)C[C@@H](C)[C@@H](OC)CN(C)C2=O = i	-1	-2	7.0	·	·	·	0.2	·

By substructure: the compounds so far containing bromine.
| Structure | FGF22 binding | Ecoli rRNA inh | Ecoli rRNA inh OD600 | AF4-AF9 inh | Ecoli growth | HNF4A DNA FP | ALR H2O2 inh | Ecoli rRNA inh RFP | Vif TR-FRET |
| --- | --- | --- | --- | --- | --- | --- | --- | --- | --- |
| CCOC(=O)C(=O)N/N=C/c1cccc(Br)c1 | i | 14 | 1 | 0.0 | · | 8.9 | -5 | 0.3 | -8% |
| O=C(NCC1(c2ccccc2)CCCC1)c1ccc(Br)o1 | · | · | · | · | 0.66 | -1.6 | 10 | · | · |

(further entries)
| Structure | FGF22 binding | Ecoli rRNA inh | Ecoli rRNA inh OD600 | AF4-AF9 inh | Ecoli growth | HNF4A DNA FP | ALR H2O2 inh | Ecoli rRNA inh RFP | Vif TR-FRET |
| --- | --- | --- | --- | --- | --- | --- | --- | --- | --- |
| CCc1nc2c(OCC(=O)c3ccc(F)cc3)cccn2c1N(C)C(=O)C(C)C | i | 2 | -6 | -0.3 | · | 2.5 | · | 0.0 | · |
| Cc1ccc(-c2nn(-c3ccc(F)cc3)cc2C(=O)NCC(c2cccs2)N2CCOCC2)cc1 (centres undefined) | · | 8 | 6 | -1.3 | 0.66 | 0.5 | -4 | -1.9 | -6% |
| N#CC1=C2SCCN2C(=O)C(C#N)C12CCCCC2 (centres undefined) | · | · | · | · | 0.69 | 0.6 | ? | · | 3% |
| COc1ccc(NC(=O)Nc2cccc3c2O[C@H](CN(C)C(=O)Nc2ccccc2)[C@H](C)CN([C@H](C)CO)C3=O)cc1 | i | -2 | -8 | -2.3 | · | · | · | -1.7 | · |
| COc1ccc(NC(=O)c2ccc(C(=O)Nc3ccc(OC)cc3OC)cc2)c(OC)c1 | · | 20 | 20 | -1.8 | 0.76 | -3.4 | · | 1.5 | 0% |
| COc1ccc(NC(=O)Nc2ccc3c(c2)C(=O)N([C@@H](C)CO)C[C@@H](C)[C@H](CN(C)C)O3)cc1 | i | 4 | 1 | 0.2 | · | · | · | 0.3 | · |

Screening data: PubChem BioAssay, several laboratories

Not all compounds are listed; the hit share may differ from the screen's.
